KCNQ2 inh – KCNQ2 potassium channel inhibitors, primary screen, cell-based, CHO-K1, FluxOR thallium flux, B-score (AID 2156); hit rate 1.1% among 310,000; 20 min; active compounds read low; only compounds with negative scores are shown here; some inactives read as strong as hits; B-score at 10 µM; Potassium voltage-gated channel subfamily KQT member 2 (Rattus norvegicus), O88943;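 active means fluorescence ratio B-score at most minus 3 library SDs, with starting brightness B-score within 2 library SDs, cut at about -5.5 in these data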
Target sequence (O88943 whole entry, looked up): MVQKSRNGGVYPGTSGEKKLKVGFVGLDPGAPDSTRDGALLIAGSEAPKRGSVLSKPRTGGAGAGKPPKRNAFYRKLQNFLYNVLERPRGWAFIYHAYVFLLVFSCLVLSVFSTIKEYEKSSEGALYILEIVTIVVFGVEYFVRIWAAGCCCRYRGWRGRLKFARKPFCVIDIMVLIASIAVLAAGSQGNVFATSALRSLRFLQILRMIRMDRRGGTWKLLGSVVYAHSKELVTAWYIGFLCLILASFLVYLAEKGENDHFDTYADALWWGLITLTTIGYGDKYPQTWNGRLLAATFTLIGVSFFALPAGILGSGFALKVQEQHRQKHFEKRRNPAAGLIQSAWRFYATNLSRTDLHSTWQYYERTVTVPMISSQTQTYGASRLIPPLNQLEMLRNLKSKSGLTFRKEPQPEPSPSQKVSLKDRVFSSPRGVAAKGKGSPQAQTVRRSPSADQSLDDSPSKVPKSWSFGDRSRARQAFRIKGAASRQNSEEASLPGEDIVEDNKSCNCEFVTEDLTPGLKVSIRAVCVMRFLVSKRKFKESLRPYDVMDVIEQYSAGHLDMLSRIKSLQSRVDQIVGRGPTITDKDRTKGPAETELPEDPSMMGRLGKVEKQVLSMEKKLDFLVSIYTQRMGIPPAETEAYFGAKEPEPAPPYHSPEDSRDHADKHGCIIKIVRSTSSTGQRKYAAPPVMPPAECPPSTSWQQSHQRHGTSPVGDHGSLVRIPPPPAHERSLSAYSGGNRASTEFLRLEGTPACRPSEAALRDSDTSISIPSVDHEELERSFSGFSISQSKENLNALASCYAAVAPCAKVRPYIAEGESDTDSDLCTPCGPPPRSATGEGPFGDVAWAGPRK
KCNQ2 inh baseline – recorded beside KCNQ2 inh, whose call it bears; B-score; measured here: initial fluorescence intensity artifact check;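 brightness before thallium and not channel activity; 0 = typical well and far values either way flag optical interference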
Numbers without * were called inactive; i = inactive. Not all compounds are listed, so the mix of outcomes need not match the whole.

Below each SMILES – KCNQ2 inh | KCNQ2 inh baseline
> Nc1nonc1-c1nc2ccccc2n1Cc1ccc(F)cc1
    i | 1.2
> Cc1ccccc1OCCNC(=O)/C=C/c1ccccc1
    i | 1.2
> COc1ccc(S(=O)(=O)N2CCOCC2)cc1NC(=O)COC(=O)C1COc2ccccc2O1 (stereo not drawn)
    i | -0.62
> COc1cc2c(C(=O)N3CCN(C)CC3)c(C)n(-c3ccccc3)c2cc1Br
    i | 0.88
> O=C(CSc1nnc(CNC(=O)c2c(F)cccc2Cl)o1)Nc1ccc2c(c1)OCO2
    i | 0.25
> O=C1C=C(c2ccccc2)OC(c2ccccc2)O1 (stereo not drawn)
    i | -0.17
> C/C(=N\NC(=S)Nc1ccc(F)cc1)C1CC1
    i | -0.72
> N#CCCN(Cc1cccnc1)C(=O)Nc1cccc(Cl)c1
    i | 0.58
> COc1cccc(CN2CCN(c3ccc(F)cc3)C2=O)c1
    i | -1.1
> O=C(Nc1ccc(N2CCCCC2)cc1)c1cc([N+](=O)[O-])cc([N+](=O)[O-])c1
    i | 1.1
> COc1cc(Br)cc(CN2CCN(C/C=C/c3ccccc3)CC2)c1O
    i | -1.3
> Cc1nc(NS(=O)(=O)c2ccccc2)sc1NC(=O)Nc1ccc(Cl)cc1
    i | 0.45
> Cn1c(Oc2ccc(F)cc2F)c(C=O)c2ccccc21
    i | -1.2
> COc1cccc(CNCc2ccc3c(c2)OCO3)c1
    i | -0.79
> O=C(NCc1ccccc1)C1=C[C@H](c2ccc(C(F)(F)F)cc2)C[C@H](OCc2ccc(CO)cc2)O1
    i | -0.92
> O=C1CN(C(=O)CSc2nc(-c3ccc(Cl)cc3)cs2)c2ccccc2N1
    i | -0.04
> CCOC(=O)C1(CCc2ccccc2)CCN(C(=O)CCc2cnccn2)CC1
    i | 1.1
> CN(CC(=O)Nc1cccc(F)c1)C(=O)c1csc2c1CCCC2
    i | -5.7
> CCOC(=O)C1CCCNC1=O (stereo not drawn)
    i | 0.22
> COc1ccc(N(CC(=O)Nc2cccc(C(F)(F)F)c2)S(C)(=O)=O)cc1
    i | -0.93
> CC(C)NC(=O)c1cc(=O)n(C)c(=O)n1C
    i | -0.71
> O=C(NC(=S)NNC(=O)c1ccccc1O)c1ccco1
    i | -1.5
> CCOC(Cn1ccc(=O)[nH]c1=O)OCC
    i | -0.15
> Cc1ccc(C(=O)OCC(=O)Nc2nc(-c3ccccc3)cs2)cc1NC(=O)c1ccco1
    i | 0.02
> COc1ccc(OC)c(NC(=O)C2CCN(Cc3cnn(-c4ccccc4)c3-n3cccc3)CC2)c1
    i | 1.3
> COc1ccc(CNS(=O)(=O)c2cc(CN3C(=O)c4cccnc4C3=O)ccc2OC)cc1
    i | -1.5
> COc1ccc(N2CCOCC2)c(NC(=O)c2cc3ccccc3o2)c1
    -7.3* | 2.1*
> Cc1ccc(/C=C/C(=O)Oc2ccc(C#N)cc2)o1
    i | 0.62
> Cc1cccc(C)c1NC(=O)Cn1c(CN2CCCCC2)nc2ccccc2c1=O
    i | 1.4
> Cc1ccc(N/N=C2\CC(=O)c3ccccc32)cc1Cl
    i | -0.87
> C=COC(=O)CSc1snc(SCC(=O)OC)c1C#N
    i | -0.01
> CC(C)(C)c1ccc(S(=O)(=O)NCc2ccc(C(=O)N3CCOCC3)cc2)cc1
    i | 0.15
> COc1cc(OC)cc(C(=O)NC(=S)NNC(=O)[C@H]2C[C@@H]2c2ccccc2)c1
    i | -1.5
> COC(=O)c1ccc(/C=N/NC(=O)C(=O)NCC2CCCO2)cc1 (stereo not drawn)
    i | 0.12
> COc1cccc(-n2nnnc2SCC(=O)NC2CCCC2)c1
    i | 3.2
> O=c1[nH]c(CN2CCc3ccccc32)nc2scc(-c3cccs3)c12
    i | 0.95
> O=C(c1ccccc1)N(Cc1nc2ccccc2c(=O)[nH]1)C1CCCCC1
    i | 1.6
> CCOc1ccc(NC(=O)CN(C)C(=O)CSCc2ccc(C)cc2)cc1OCC
    i | -0.84
> Cc1ccc(C)c(NC(=O)C(Sc2nc3ccccc3c(=O)n2CC(C)C)c2ccccc2)c1 (stereo not drawn)
    i | -1.7
> COc1ccc(/C=C2\SC(=S)N(CCC(=O)N3CCCCC3CCO)C2=O)cc1 (stereo not drawn)
    i | 0.04
> CSc1ccccc1C(=O)N(C)Cc1ccccc1
    i | 0.54
> CCCn1nnc(NC(=O)C(C)C)n1
    i | 0.8
> O=C(NCCc1ccccc1)c1cccs1
    i | 0.49
> CCC(C)NC(=S)N1CCN(Cc2ccccc2)CC1 (stereo not drawn)
    i | 0.58
> Cc1cc(C)cc(NC(=O)N2CCCN(Cc3c(F)cccc3Cl)CC2)c1
    i | -0.62
> O=C(Nc1ccc(CN2CCCCC2)cc1)c1cc(Br)ccc1Cl
    i | -0.07
> COc1ccc(N2CCN(c3cc(C)c4ccccc4n3)CC2)cc1
    i | -0.66
> CC(C)c1ccc(NC(=O)COC(=O)CCC(=O)c2cccs2)cc1
    i | 0.09
> CCN(C(=O)CSc1nc2ccccc2c(=O)n1-c1ccc(C)cc1)C1CCS(=O)(=O)C1 (stereo not drawn)
    i | -1.1
> CC(O)CNCCNCc1cccs1 (stereo not drawn)
    i | 1.1
> CCOc1ccccc1Nc1ncnc2ccc(Br)cc12
    i | -0.04
> O=C(Cn1ccc2ccccc2c1=O)Nc1ccc2c(c1)OCO2
    i | -0.76
> C/C(N)=C(/C#N)C(=O)COC(=O)c1ccccc1O
    i | -0.03
> CCCCN(C)CCNC(=O)c1ccc(Cn2c(=S)[nH]c3ccc(Br)cc3c2=O)cc1
    i | -0.47
> CC1Cc2cc(S(=O)(=O)N3CCC(C(N)=O)CC3)ccc2N1C(=O)C1CC1 (stereo not drawn)
    i | 0.11
> COc1ccc(OCC(O)CNC(=O)c2ccc(Br)cc2)cc1 (stereo not drawn)
    i | 1.1
> CCC(C(=O)NCc1ccccc1OC)n1nc(C)n2c(cc3occc32)c1=O (stereo not drawn)
    i | -0.14
> O=C(O)CCC(=O)Nc1ccc(-c2nnc(-c3ccco3)o2)cc1
    i | -0.57
> COC(=O)c1[nH]c2cccc(OC)c2c1NC(=O)CN1CCC(C(N)=O)(N2CCCCC2)CC1
    i | 1.3
> Cc1[nH]n2c(=O)cc(-c3ccc([N+](=O)[O-])cc3)nc2c1-c1ccccc1
    i | -2.3

Following part.
Below each SMILES – KCNQ2 inh | KCNQ2 inh baseline
> CCCCC1(C(=O)OC)NC(c2ccc(O)cc2)C2C(=O)N(c3ccccc3)C(=O)C21 (stereo not drawn)
    i | 1.8
> O=C(N/N=C/c1ccc(-c2ccccc2[N+](=O)[O-])o1)c1cccnc1
    i | 1.1
> O=S(=O)(c1ccc2ccccc2c1)N1CCN(C(=S)Nc2ccccc2F)CC1
    i | -0.74
> CCOCCCNC(=O)C(NC(=O)CNC(C)=O)c1ccc(C)cc1 (stereo not drawn)
    i | -0.98
> COc1ccccc1/C=C/C=N/NC(=O)CCC1C(=O)NN=C1C (stereo not drawn)
    i | -1
> Cc1cc(=O)c(C(=O)O)nn1-c1cccc(C(F)(F)F)c1
    i | 0.39
> COc1cccc(NC(=O)NC2CCN(Cc3nnnn3Cc3ccc(F)cc3)CC2)c1
    i | 0.07
> CC(=O)N1CCCc2ccc(NS(=O)(=O)c3ccccc3)cc21
    i | -0.88
> CCCN(CCC)S(=O)(=O)c1ccc(C(=O)NNC(=O)c2cc(OC)c(OC)c(OC)c2)cc1
    i | -0.74
> Cc1ccc(NC(=O)c2cc(C)n(-c3ccccc3)c2C)cc1
    i | -0.01
> CNC(=S)N/N=C(\C)c1cccc(C(F)(F)F)c1
    i | -0.38
> C=C(C)COc1ccc(-c2[nH]ncc2-c2ccccc2OC)c(O)c1
    i | -0.5
> NC(=O)c1ccc(C(F)(F)F)n(Cc2ccccc2Cl)c1=O
    i | 0.85
> Cn1ccnc1SCC(=O)c1ccc([N+](=O)[O-])cc1
    i | 0.36
> Cc1cc(N(C)/N=C/c2ccccc2O)nc(-c2ccccc2O)n1
    i | -0.62
> CN(C)CCOCCOc1ccc(Cl)cc1C(C)(C)C
    i | 0.46
> COc1ccccc1C(=O)Nc1ccc2c(c1)CCCN2C(=O)c1ccccc1
    i | -0.77
> Cc1nnc(SCCN2C(=O)c3ccccc3C2=O)[nH]c1=O
    i | 0.41
> Cc1ccc2cc(CN(Cc3ccco3)C(=O)NCc3ccccc3)c(=O)[nH]c2c1C
    i | 0.12
> CN(C)CCCNC(=O)c1cc(C(=O)c2c(Cl)cccc2Cl)c[nH]1
    i | -1.6
> CCN(CC)C1=N/C(=C\c2ccc(OC)cc2)C(=O)N1c1ccccc1
    i | -0.36
> CN=C(Nc1cc(C)nn1-c1ccccc1)c1ccccc1
    i | 0.98
> O=C(Nc1ccc(NC(=O)C2CC2)nc1)c1cccs1
    i | 0.77
> CCOC(=O)C1CCCN(c2c(Nc3ccc(OCC)cc3)c(=O)c2=O)C1 (stereo not drawn)
    i | -0.85
> COc1ccc(-c2cc(C(=O)N3CCN(c4ccccc4)CC3)c3ccccc3n2)cc1OC
    i | 2.1
> COCCOC(=O)C1=C(C)NC(=O)NC1c1cccc(F)c1 (stereo not drawn)
    i | 1.5
> Cn1nnnc1Sc1c(Cl)cccc1[N+](=O)[O-]
    i | 3
> COc1c(S(=O)(=O)NCCCn2ccnc2)ccc(Cl)c1Cl
    i | 0.93
> O=C(NCCN1CCN(c2ccccc2F)CC1)C1CCCN(S(=O)(=O)c2cnc[nH]2)C1 (stereo not drawn)
    i | 0.65
> COc1ccc(C(=O)NCCNc2ccccc2[N+](=O)[O-])cc1
    i | -1.1
> Cc1ccc(N2CCN(C(=S)c3ccc(N(C)C)cc3)CC2)cc1
    i | -0.17
> O=C(COc1ccc(Cl)cc1Cl)NN1C(=O)C2C3C=CC([C@@H]2C1=O)C31CC1 (stereo partly drawn)
    i | -0.62
> Cc1cccc(CCNC(=O)c2oc3c(C)c(C)ccc3c2C)n1
    i | -2.8
> CCc1ccc(NC(=O)N2CCN(C(=O)C3CCCO3)CC2)cc1 (stereo not drawn)
    i | -0.57
> O=C(Cn1c(CO)nc2ccccc21)Nc1cc(C(F)(F)F)ccc1N1CCOCC1
    i | -0.01
> CCOC(=O)N1CCN(C(=O)Nc2ccc(Cl)cc2Cl)CC1
    i | 0.68
> O=C(CN(Cc1ccc(F)cc1)C(=O)C1CSC(=O)C1)NC1CCCCC1 (stereo not drawn)
    i | 0.45
> CCOc1cc(/C=C2\SC(N3CCCC(C)C3)=NC2=O)ccc1O (stereo not drawn)
    i | -1.5
> COc1ccc(S(=O)(=O)NCCC(C)C)cc1C
    i | 1.8
> Cc1cc2oc(C(=O)N(Cc3ccc(N(C)C)cc3)CC3CCCO3)c(C)c2cc1C (stereo not drawn)
    -8.6* | 3.8*
> CC(C)(C)c1ccc(OC(=O)N2CCOCC2)cc1
    i | -0.48
> CC(CC(=O)NCc1ccco1)S(=O)(=O)c1ccc2c(c1)CCN2C(=O)C1CC1 (stereo not drawn)
    i | 0.17
> CCOC(=O)c1ccc(NC(=O)[C@@H](NC(N)=O)C(C)C)cc1
    i | 0.46
> N#C/C(=C\c1ccc(Sc2nc3ccccc3[nH]2)o1)c1ccccc1
    i | 0.7
> Cc1scc(C(=O)NNC(=S)NCC(C)C)c1C
    i | 1.2
> C=CCn1c(SCC(=O)Nc2sc3c(c2C#N)CCC3)nnc1C1COc2ccccc2O1 (stereo not drawn)
    i | -0.01
> Cn1c(SCC(=O)NC2CCCC2)nnc1-c1cccs1
    i | 0.03
> CCC(C)N=Cc1c(Nc2ccccc2)nc2c(C)cccn2c1=O (stereo not drawn)
    i | 0.77
> CC1(C)Cc2cccc(C(=O)Nc3ccc(F)cc3F)c2O1
    i | -0.11
> COC(=O)c1ccc(N2CCOCC2)c(NC(=O)c2cccs2)c1
    i | -0.39
> Cc1cc(Nc2nnnn2-c2ccccc2)n(-c2ccccc2)n1
    i | 0.09
> COc1cc(=O)[nH]c(=O)n1C(=O)Cc1ccccc1
    i | 0.94
> Cc1nc2ccc(F)cc2cc1C(=O)NCC1CCCO1 (stereo not drawn)
    i | 0.82
> CCC(CC)N1CCN(Cc2nc3ccc([N+](=O)[O-])cc3c(=O)n2-c2ccccc2F)CC1
    i | 0.82
> CCC(=O)N(CC)C1=C(O)c2ccccc2C(=O)C1=O
    i | -6.2
> COc1ccc(/C=C/C(=O)NC(=S)N2CCSCC2)cc1
    i | 0.53
> O=C(CCC(=O)c1ccc(F)cc1)Nc1cc(Cl)cc(Cl)c1
    i | 1.8
> COc1ccc(OC)c(NC(=O)Nc2ccc3c(c2)CCC3)c1
    i | -1
> Cc1ccccc1OCC(=O)OCC(=O)Nc1cc(C(F)(F)F)ccc1N1CCOCC1
    i | 0.59
